Arbovirus inh = antivirals against arbovirus infection | arbovirus infection cell-based antiviral screen | inhibition, % at 10 µM | 200,000 tested, 0.37% active | AID 1251;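 active = inhibition from about 30%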;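 also: bluetongue infection of BSR cells; cell survival read as ATP light after 72 h; 0% = infected wells without compound and 100% = uninfected wells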
YopH PTP inh = blocks Yersinia enterocolitica YopH tyrosine phosphatase | fluorescence Ex485/Em525 | inhibition, %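 (about 10 µM by stock and volumes)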 | 140,000 tested, 0.16% active | AID 898;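 active = inhibition of 50% or more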;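 also: controls were vehicle for no effect and minimum signal wells for full effect; inactives centre near -20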
Mtb betalactam = beta-lactam sensitization of Mtb H37Rv. M. tuberculosis H37Rv growth with meropenem, percent inhibition; hits of this screen are not shown here. inhibition, % at 25 µM. 330,000 tested, 0.27% active. AID 434955;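 active = about 74% or more and at least 40 points above the plate without the antibiotic, then above 30% in a dose series; inconclusive = first-round hits that could not be retested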;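 also: growth measured after seven days incubation then overnight dye step; 0% = bacteria only wells and 100% = bacteria with antibiotic; twin plates without the antibiotic show which effects depend on it; some results filed as inactive read as strong as hits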
Mtb growth = M. tuberculosis H37Rv growth inhibitors, H37Rv strain (AID 1626). M. tuberculosis H37Rv growth inhibition; higher % means a stronger effect. inhibition, % at 10 µM, or IC50 in µM where a hit was titrated. 220,000 tested, 0.95% active;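 active = confirmed in a dose series; inconclusive = inhibition above 80% but not taken into the dose series; inactive = below 80% or under 30% at every dose of the series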;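 also: bacteria incubated seven days before Alamar blue readout; 0% = bacteria only wells and 100% = bacteria with antibiotic wells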
RecA splice inh = blocks M. tuberculosis RecA intein splicing; P9WHJ3; inhibition, %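 (about 9 µM by stock and volumes)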; 290,000 tested, 0.75% active; AID 2221; cell-free RecA intein splicing, fluorescence; in the data active = inhibition above about 30%; inconclusive = no clear call, values can overlap the other calls;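 also: 0% = vehicle wells and 100% = reference inhibitor control wells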
Target sequence (P9WHJ3 whole entry, looked up, canonical isoform): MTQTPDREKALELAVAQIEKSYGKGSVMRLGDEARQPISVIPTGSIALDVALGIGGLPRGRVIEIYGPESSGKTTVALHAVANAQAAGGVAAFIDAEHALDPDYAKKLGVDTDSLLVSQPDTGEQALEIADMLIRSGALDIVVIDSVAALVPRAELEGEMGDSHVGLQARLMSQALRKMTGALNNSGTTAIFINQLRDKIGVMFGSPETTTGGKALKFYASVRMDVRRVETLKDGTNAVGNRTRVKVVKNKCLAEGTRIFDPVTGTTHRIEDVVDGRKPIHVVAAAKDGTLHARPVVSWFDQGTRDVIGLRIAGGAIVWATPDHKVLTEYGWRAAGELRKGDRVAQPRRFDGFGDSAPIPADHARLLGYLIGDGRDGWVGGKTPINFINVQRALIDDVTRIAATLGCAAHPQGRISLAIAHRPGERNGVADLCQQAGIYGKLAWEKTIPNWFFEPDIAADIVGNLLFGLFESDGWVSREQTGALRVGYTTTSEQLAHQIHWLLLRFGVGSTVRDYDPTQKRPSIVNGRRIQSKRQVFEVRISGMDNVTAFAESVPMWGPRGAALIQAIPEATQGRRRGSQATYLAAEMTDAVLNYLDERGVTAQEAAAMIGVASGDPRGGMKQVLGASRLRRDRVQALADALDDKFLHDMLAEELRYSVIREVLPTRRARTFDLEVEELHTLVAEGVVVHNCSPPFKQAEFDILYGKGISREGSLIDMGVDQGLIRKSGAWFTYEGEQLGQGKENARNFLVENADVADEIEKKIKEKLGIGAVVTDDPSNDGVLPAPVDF
Arbovirus inh repeat = second read-out of Arbovirus inh, no call of its own (marks repeat the call); inhibition, %; measured here: 10K subset replicate screen; many hits read low in the repeat;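 first of two repeat runs on a subset; 0% = infected and 100% = uninfected wells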
Active calls of the source: *; ? = inconclusive; · = not tested or not shown.

SMILES	Arbovirus inh	YopH PTP inh	Mtb betalactam	Mtb growth	RecA splice inh	others
CCCCn1c(=O)c(CCC(=O)OCC(=O)Nc2cc(Cl)ccc2OC)nc2ccccc21	-4	-26	-1	-5%	-1.0
Cc1ccc(NC(=O)C2CC=CCC2C(=O)N2CCCCC2)cc1 (stereo unspecified)	7	10	-13	-1%	-1.3
CC(C)(C)NS(=O)(=O)c1ccc(NC(=O)NC2CCCCC2)cc1	-2	-18	-2	-3%	·
CNc1oc(-c2cccs2)nc1S(=O)(=O)c1ccccc1	-4	·	0	1%	-5.7
CC(C)(C)C1CCc2c(C(=O)NNC(=O)CCC(=O)O)csc2C1 (stereo unspecified)	5	-28	2	-18%	-3.1
COc1ccc(N2C(=O)CC(N3CCN(C(=O)c4ccco4)CC3)C2=O)cc1 (stereo unspecified)	2	·	4	-3%	1.4
CS(=O)(=O)c1ccccc1C(=O)NC1CCCc2ccccc21 (stereo unspecified)	-7	·	5	0%	-1.1
O=[N+]([O-])c1cc(Cl)ccc1N1CCCC1	2	·	0	-3%	-8.2
O=C(O)CN1CCN(Cc2cccc(Cl)c2)C1=O	·	·	-2	·	-0.8
O=C1CN(C(=O)c2ccccc2F)C(c2ccccc2)c2cc(Cl)ccc2N1 (stereo unspecified)	·	·	3	·	19
C/C(=N\NC(=O)c1nnn(-c2nonc2N)c1C(C)C)c1ccncc1	·	·	0	·	0.8
CCC(C(=O)O/N=C(\N)c1ccc(Cl)cc1)c1ccccc1 (stereo unspecified)	-2	-36	0	2%	5.7
O=c1c2ccccc2[nH]c(=S)n1CCCN1CCC(Cc2ccccc2)CC1	·	·	68	·	2.7
CC(C)Oc1ccc(C(=O)Nc2cc(=O)n(C)c(=O)n2C)cc1	2	-50	-2	2%	0.1
CCOC(=O)c1[nH]c2ccc(F)cc2c1NC(=O)Nc1ccccc1OC	-10	-9	-1	-6%	-0.7
O=C(NCCCN1CCOCC1)c1cc(-c2ccc(Cl)c(Cl)c2)on1	·	·	4	·	-0.4
CCc1nc(SCC(=O)Nc2c(C)nn(C)c2C)c2cnn(-c3ccccc3)c2n1	-8	16	·	·	-1.1
CCn1c(=O)c(C(=O)NNC(=O)c2ccccc2)c(O)c2ccccc21	·	·	1	·	7.8
O=C(NCc1cccnc1)c1cnc2ccccc2n1	·	·	-3	-7%	-0.4
CC/C(=N\N1CCCCCC1)c1c(O)n(-c2ccc(C)cc2)c(=O)[nH]c1=O	3	-16	6	8%	0.8
COc1ccc2c(C)cc(SCn3nnc4ccccc4c3=O)nc2c1	3	-14	-9	-1%	-2.2
O=C(Nc1ccccc1C(=O)NCCCN1CCOCC1)c1ccc(F)cc1	·	·	-4	·	-3.1
Cc1cc(C)n(-c2nc3c(c(=O)[nH]c(=O)n3C)n2CC(O)COc2ccc(Cl)cc2Cl)n1 (stereo unspecified)	-17	4	9	-12%	1.8
O=C(COC(=O)C1=COCCO1)Nc1ccc(Oc2ccccc2)cc1	-10	-13	89	64%	0.6

For reference, some entries already given:
SMILES	Arbovirus inh	YopH PTP inh	Mtb betalactam	Mtb growth	RecA splice inh	others
O=C(Nc1ccccc1C(=O)NCCCN1CCOCC1)c1ccc(F)cc1	·	·	-4	·	-3.1
Cc1cc(C)n(-c2nc3c(c(=O)[nH]c(=O)n3C)n2CC(O)COc2ccc(Cl)cc2Cl)n1 (stereo unspecified)	-17	4	9	-12%	1.8
O=C(COC(=O)C1=COCCO1)Nc1ccc(Oc2ccccc2)cc1	-10	-13	89	64%	0.6

(listing goes on)
SMILES	Arbovirus inh	YopH PTP inh	Mtb betalactam	Mtb growth	RecA splice inh	others
S=C(Nc1ccccc1Oc1ccccc1)NC1CCCC1	14	·	1	5%	3.4
CCC(=O)N=c1sc2c(C)cc(C)cc2n1CC(=O)OC	-7	0	-4	-4%	-7.7	Arbovirus inh repeat=-4
COc1ccc(S(=O)(=O)N(CC(C)C)C2CCS(=O)(=O)C2)cc1OC (stereo unspecified)	·	·	-3	·	5.4
CCOC(=O)c1ccc(NC(=S)NN2CCN(C)CC2)cc1	12	·	1	1%	-1.2
CCC(CC)C(=O)Nc1c(C)n(C)n(-c2ccccc2)c1=O	-2	-5	-10	0%	0.5
Cc1cn2nc(N)c3ccccc3c2n1	2	-42	-7	-6%	·
Cc1cc(C(=O)N/N=C/c2cc([N+](=O)[O-])cc(C)c2O)n[nH]1	-17	-28	·	-2%	3.0
Cc1ccc(NC(=O)COC(=O)C2CCC(=O)N2)c(S(=O)(=O)N2CCOCC2)c1 (stereo unspecified)	0	2	0	-6%	-1.7
Cc1csc2nc3cc(C(N)=O)ccc3c(=O)n12	·	·	-6	-7%	-96
COC(=O)[C@@H]1C(c2ccccc2)(c2ccccc2)[C@@]1(C)C(=O)OC	-3	-21	-1	·	2.8
Cc1ccc(C(=O)N2CCCc3ccccc32)c(F)c1F	·	·	-3	·	-1.6
COc1ccccc1C(=O)Nc1ccc(-c2nnc(SCC(=O)O)n2C)cc1	8	-35	-10	-3%	·
CNC(=S)NNC(=O)Cc1ccc(OC)c(OC)c1	-6	-11	-20	-5%	-0.1
CCN(CC)C(=O)c1ccc(NC(=O)CSc2nnnn2-c2cc(OC)ccc2OC)cc1	-3	-29	-1	11%	0.1
Cc1ccc(NC(=O)CC2SC(=O)N(c3ccccc3)C2=O)cc1 (stereo unspecified)	0	-64	18	-3%	1.5
O=C(COC(=O)c1ccc(Cl)c(S(=O)(=O)N2CCCC2)c1)NCc1cccs1	1	·	-5	9%	-0.5
O=C(c1cc(F)ccc1F)C1CCCN(C(=O)CSc2ccccn2)C1 (stereo unspecified)	6	·	10	-14%	3.4
CCC(C)(C)C1CCC(=NNC(=O)c2ccc(Br)o2)CC1 (stereo unspecified)	-19	-22	-7	4%	-2.7
CCCCOC(=O)Nc1ccc(C)c(Cl)c1	5	-4	87	>100µM*	9.3
COc1ccc(C(=O)CSc2nnc(-c3ccc(S(=O)(=O)N4CCOCC4)cc3)o2)cc1	-7	1	11	1%	-0.9
O=C1C(Nc2ccccc2)=C/C(=N/S(=O)(=O)c2cccs2)c2ccccc21	-45	-13	98	77%	38*
CC1=NN(C(=O)c2ccc(Br)cc2)C(O)(c2ccccc2)C1 (stereo unspecified)	-23	·	92	65%	4.4
Cc1nc2ccccc2c(=O)n1NC(=O)C1CCC(C(C)(C)C)CC1 (stereo unspecified)	13	·	47	-3%	-0.9
O=C(CCSCc1ccc(Cl)cc1)NCCC1=CCCCC1	6	-23	-2	6%	2.5
Cc1cc(NC(=O)/C=C/c2ccco2)ccc1NC(=O)c1ccccc1	-15	·	8	-2%	-6.8
Cc1ccc(CNC(=O)C2C3C=CC4(CN(Cc5cccnc5)C(=O)C24)O3)cc1 (stereo unspecified)	2	-4	-8	-10%	-0.1
CC(=O)Nc1ccc(NC(=O)C/C(C)=N/NC(=O)C(=O)Nc2ccc(C)c(Cl)c2)cc1	·	·	81	?	-0.3
Cc1ccc(CSc2nc3ccccc3cc2C=O)cc1	-31	-17	52	6%	-0.9
Cc1nc2ccccc2nc1OCC(=O)Nc1ccc(F)cc1	2	·	-10	4%	1.8
COc1ccc(NC(=O)Nc2cc3oc4ccccc4c3cc2OC)cc1	1	-14	0	·	-4.6
COC(=O)c1c(NC(=O)C(=O)N2CCCCC2)sc2c1CC(C)(C)OC2	·	·	6	·	3.7
CCCc1c(C(=O)Nc2cc(C)on2)cnn1-c1ccccc1	·	·	6	1%	9.4
Cc1nn(CCO)c(N)c1C1(O)C(=O)Nc2c(Cl)cc(Cl)cc21 (stereo unspecified)	-4	·	3	-1%	4.1
CC(=O)N1CCC2(CC1)C(C#N)=C(N)OC1=C2C(=O)CC(C)(C)C1	0	-37	-10	0%	2.1
O=C(Oc1ccc2ccc(=O)oc2c1)c1cccs1	0	-22	47	45%	-27
COC(=O)C1CCN(C(=O)/C=C/c2ccc3c(c2)OCO3)CC1	·	·	3	·	-2.1
Cc1cccc(C)c1OCC(=O)Nc1ccc(NC(=O)c2ccco2)cc1	-4	·	4	-2%	-6.1
CC(=O)C1=C(C)NC(SCC(=O)c2ccccc2)=C(C#N)C1CC(C)C (stereo unspecified)	-6	-29	·	7%	-5.4
COc1ccc(NC(=O)C2CCOC2=O)cc1 (stereo unspecified)	·	·	-5	·	0.5
COc1ccc(CC(=O)Nc2ccccc2C(C)=O)cc1S(=O)(=O)N1CCOCC1	·	·	-9	·	2.7
COc1cccc(CN2CCN(Cc3cc(OC)c(OC)cc3OC)CC2)c1	·	·	-5	·	-2.2
O=C(CN1CCN(c2ccccn2)CC1)NC(=O)NC1CCCCC1	0	-36	3	2%	1.9
CCOc1ccc(Nc2cc(C)nc3c(C)cccc23)cc1	·	·	-5	·	0.8
Cc1cccc2nc(CSc3ncccc3C(=O)O)cn12	1	·	2	8%	-1.5
CCOCC(=O)Nc1cc(C(=O)OC)ccc1C(=O)OC	3	-19	98	-1%	0.3
O=C(NC1CCCCC1)C1COc2ccccc2O1 (stereo unspecified)	·	·	7	·	1.7
Cc1occc1C(=O)/C(C#N)=C/c1ccc(O)c(Br)c1	·	·	2	·	2.8
C[C@]12C=CC(=O)C=C1CC[C@@H]1[C@@H]2[C@@H](O)C[C@@]2(C)[C@H]1CC[C@]2(O)C(=O)COC(=O)CCC(=O)O	20	-39	1	-8%	1.4

Brought forward from above: 2 compounds, then new ones.
SMILES	Arbovirus inh	YopH PTP inh	Mtb betalactam	Mtb growth	RecA splice inh	others
Cc1occc1C(=O)/C(C#N)=C/c1ccc(O)c(Br)c1	·	·	2	·	2.8
C[C@]12C=CC(=O)C=C1CC[C@@H]1[C@@H]2[C@@H](O)C[C@@]2(C)[C@H]1CC[C@]2(O)C(=O)COC(=O)CCC(=O)O	20	-39	1	-8%	1.4
O=C(Nc1ccc(F)cc1F)C1CCN(S(=O)(=O)c2cccnc2)CC1	·	·	0	·	1.2
O=C(O)CN1C2=NCCCN2c2ccccc21	2	·	-3	-5%	-1.8
O=C(COC(=O)[C@@H]1CC(O)CN1S(=O)(=O)c1ccc([N+](=O)[O-])cc1)NC12CC3CC(CC(C3)C1)C2 (stereo partly specified)	4	-23	-5	-12%	0.3
O=C(O)CCc1nc(-c2cccs2)no1	4	-37	-1	·	1.4
O=c1c2ccccc2nc(COc2ccccc2)n1/N=C/c1ccco1	-3	-3	2	10%	4.9
O=[N+]([O-])c1cc(Cl)ccc1NCCc1ccccn1	·	·	-6	·	4.2
O=C1CC(c2cccs2)CC(O)=C1C=NCCN1CCNCC1 (stereo unspecified)	1	-51	6	-4%	-2.0	Arbovirus inh repeat=13
O=c1c(-c2ccccc2)c(O)nc2ccccn12	5	-20	2	-12%	-4.8
C=C(C)c1cccc(C(C)(C)NC(=O)N(C)C2CCN(C)CC2)c1	2	·	·	7%	3.0
O=[N+]([O-])c1ccc(N2CCOCC2)cc1NCCCO	0	·	-3	-6%	10
Cn1ncc2nc[nH]c(=O)c21	13	-11	-4	-2%	-0.1
CNCC(O)CN1CCN(c2ccccc2OC)CC1 (stereo unspecified)	3	·	-1	-6%	-1.1
CCNC(=O)N1c2ccc(OCC)cc2C(C)=CC1(C)C	-1	-23	15	-5%	-2.2
Cn1nc(C(F)(F)F)c(C(=O)Nc2ccc(F)cc2F)c1Sc1cccc(C(F)(F)F)c1	-2	-42	-11	-3%	5.0
COc1cccc(CNc2nc3ccccc3n2CCN2CCCCC2)c1	8	-26	-6	3%	2.7
O=C(Nc1ccc(OC(F)(F)F)cc1)C1=NCCN1	-4	-23	2	-3%	-7.7
Cc1ccc2c(c1)cc1c(=O)n(CC(=O)N(C)c3ccccc3)nc(C)n12	·	·	3	·	-0.9
Cc1ccc(/C=N/Nc2ccc3c(C(F)(F)F)cc(C(F)(F)F)nc3n2)cc1	-1	-43	6	-11%	-1.7
CCCNC(=O)c1c(C)cc(=O)oc1C	6	-5	0	-7%	2.5
CC(=O)c1ccc(NS(=O)(=O)c2ccc3c(c2)N(C)CCO3)cc1	·	·	?	·	-11
CC(C)CCC(CC(C)O)c1n[nH]c(=S)n1-c1ccccc1 (stereo unspecified)	0	-3	0	8%	0.1
CC1=C(C)/C(=N/OC(=O)c2cccc([N+](=O)[O-])c2)C=CC1=O	-31	-30	94	-17%	47*
CCS(=O)(=O)N1Cc2ccccc2CC1C(=O)NCc1cccc(OC)c1 (stereo unspecified)	·	·	1	·	-0.4
O=C(COC(=O)c1nc(Cl)ccc1Cl)NCCc1ccccc1	·	·	-2	·	5.2

Of the compounds above, these contain a cyano group.
SMILES	Arbovirus inh	YopH PTP inh	Mtb betalactam	Mtb growth	RecA splice inh	others
CC(=O)N1CCC2(CC1)C(C#N)=C(N)OC1=C2C(=O)CC(C)(C)C1	0	-37	-10	0%	2.1
CC(=O)C1=C(C)NC(SCC(=O)c2ccccc2)=C(C#N)C1CC(C)C (stereo unspecified)	-6	-29	·	7%	-5.4
Cc1occc1C(=O)/C(C#N)=C/c1ccc(O)c(Br)c1	·	·	2	·	2.8

Some of the compounds tested (hit frequency here may not be typical).
